# PKM2 act: activators of human pyruvate kinase M2. P14618. purified PKM2, Kinase-Glo ATP luminescence, activation; response scale: 0% is enzyme alone, no compound. Potency, µM (top dose mostly 57.5 µM), for the others: at the top dose activation, most hits filed as activators. 260,000 tested, 0.34% active. AID 1631; also: potency is read from the fitted curve at half-maximal effect; % is scaled to controls: 0 for no effect and ±100 for the full control effect; nearly all actives have a fitted effect of over 55% in size
#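 hPK-M2, >95% pure; 0.1 mM ADP / 0.5 mM PEP final; imidazole pH7.2 buffer w/ 7 mM MgCl2, 50 mM KCl; 1 h RT; Kinase-Glo lum. Intermediate enzyme activity for dual inhibitor/activator qHTS.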
# Chronic BCR inh: chronic active BCR signaling inhibition; ABC-DLBCL IkBa-CBG/CBR reporter, luminescence ratio, 4 h; Potency, µM (titrated, usually from 46.1 µM), for the others: top-dose ratio change, negative = lower green/red ratio, hits mostly inhibitors; 340,000 tested, 0.05% active; AID 493014; active = well fitted inhibition curve with a large enough effect in the signal ratio, with a control signal flat, not every such curve was filed as active; inconclusive = small, poorly fitted or top-dose-only effect, or effect the other way, or a change in a side signal; the % refers to the signal ratio;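 also: potency is read from the fitted curve at half-maximal effect; plate controls were basal doxycycline-induced cells for no effect and cells given 10 µM MG132 for full effect; MG132 reads +100%, hits lower the ratio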
#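 Doxycycline induced both beetle luciferases in TMD8 lymphoma cells; IKK-driven degradation limits the IkappaBalpha-fused green signal, while red luminescence normalises for cell number and nonspecific effects. Compounds tested up to 46 uM, 4 hrs.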
# a7 integrin act: integrin-mediated muscular dystrophy alleviation activation; alpha7betagal myoblasts, beta-gal FDG fluorescence, 48 h; Potency, µM (highest dose often 38.3 µM), inactives show at the top dose activation, most hits filed as activators; 350,000 tested, 0.064% active;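 also: potency is read from the fitted curve at half-maximal effect; 100% = response of the positive control SU9516; nearly all actives have a fitted effect of over 60% in size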
#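 alpha7betagal+/- myoblasts (passage 13, 250/well) treated 48 h at 37C with compounds at 1:260 dilution of DMSO stock. Lysed, then beta-galactosidase activity read as FDG fluorescence (ex 480/em 540) after 30 min, with pre-read for autofluorescence.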
# Giardia kill: kills Giardia lamblia | Giardia lamblia trophozoite viability | activity change, % at 7.66 µM, hits read low | 340,000 tested, 0.15% active; in the data active = activity change below about -80%; inconclusive = between about -30% and that limit;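 also: parasites exposed to compound for two days anaerobically before the ATP read; % is scaled to controls: 0 for no effect and ±100 for the full control effect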
#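 Trophozoite viability was measured as ATP-dependent luminescence, read 15-30 min after reagent addition. Before that, parasites at 100 cells/well were exposed to compounds for 48 h, anaerobically, at 37 deg C.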
# S-ASM inh: inhibitors of human secretory acid sphingomyelinase | P17405 | placental ASM, HMU-PC fluorogenic substrate, 60 min | Potency, µM (highest dose often 57.5 µM), inactives show top-dose activity change, negative = inhibition, most hits filed as inhibitors | 340,000 tested, 0.006% active | AID 504937; also: potency is read from the fitted curve at half-maximal effect
#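 Human placenta-derived ASM enzyme was preincubated with compound for 10 minutes at room temperature, then given fluorogenic substrate HMU-PC0 (9 uM final) for 60 minutes at 37 °C; a pH 10 stop preceded fluorescence reading at Ex 386/Em 447 nm.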
# Tb PFK inh: T. brucei PFK enzyme inhibition; Potency, µM (doses to about 57.5 µM), inactives show at the highest dose activity, negative = inhibition, usual class: inhibitors; T. brucei PFK, ADP-Glo luminescence; O15648; 330,000 tested, 0.17% active;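 also: potency is read from the fitted curve at half-maximal effect; 0% = uninhibited 1x PFK enzyme wells and -100% = no-enzyme wells; nearly all actives have a fitted effect of over 60% in size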
#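 PFK 1.25 nM, F6P 0.5 mM, ATP 0.1 mM, 0.1 M TEA pH 8.0, 5 mM MgCl2, 0.01% Tween20, 0.1% BSA; 45 min RT. ADP-Glo readout. qHTS titration up to 57 uM; curves fitted, compounds curve-classed.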
# Coupling enz: counter-screen for Giardia aldolase inhibitors: coupling enzyme system; coupling enzyme system counterscreen, AmpLite Red fluorescence; activity change, negative = inhibition, % at 58.2 µM, hits read low; 290,000 tested, 0.67% active; in the data active = activity change below about -30%; also: % is scaled to controls: 0 for no effect and ±100 for the full control effect
#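 Counterscreen lacking aldolase: glyceraldehyde-3-phosphate coupling-enzyme reagent preincubated 10 min at RT with compound (at 57.5 uM final), then substrate/coupling system with AmpLite Red added; fluorescence read at 525/598 nm after 20 min RT.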
# GALK inhibitor: inhibitors of human galactokinase. P51570. Purified GALK, Kinase-Glo residual ATP luminescence. Potency, µM (top dose mostly 57.5 µM), without a hit: at the top dose activity change, negative = inhibition, hits mostly inhibitors. 270,000 tested, 0.007% active. AID 1868; also: potency is read from the fitted curve at half-maximal effect; % is scaled to controls: 0 for no effect and ±100 for the full control effect
#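 Galactose (100 uM) and ATP (35 uM) were turned over by 5 nM GALK for 1 h at RT. Kinase-Glo Plus then converted the remaining ATP into a luminescent signal.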
# B2AR arrestin: recruits beta-arrestin to the human beta2-adrenergic receptor. Potency, µM (highest dose often 46.1 µM), for the others: top-dose activation, most hits filed as activators. beta-arrestin recruitment to beta2AR, cell-based reporter. 330,000 tested, 0.02% active. AID 492947. P07550;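 also: potency is read from the fitted curve at half-maximal effect; 0% = DMSO controls and full agonism = EC100 isoproterenol or metaproterenol; nearly all actives have a fitted effect of over 65% in size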
# Target sequence (P07550 whole entry, looked up): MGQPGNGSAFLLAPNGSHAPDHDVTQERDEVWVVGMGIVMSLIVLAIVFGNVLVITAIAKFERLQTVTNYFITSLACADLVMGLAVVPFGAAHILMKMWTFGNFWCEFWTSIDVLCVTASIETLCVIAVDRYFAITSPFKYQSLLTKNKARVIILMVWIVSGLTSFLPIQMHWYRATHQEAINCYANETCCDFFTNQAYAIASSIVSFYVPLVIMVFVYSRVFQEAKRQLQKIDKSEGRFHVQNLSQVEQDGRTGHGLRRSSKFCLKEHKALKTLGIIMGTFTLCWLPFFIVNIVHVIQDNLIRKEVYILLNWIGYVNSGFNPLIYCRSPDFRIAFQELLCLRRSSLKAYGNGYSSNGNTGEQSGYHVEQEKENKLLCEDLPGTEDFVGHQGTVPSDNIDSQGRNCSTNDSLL
# PTAP TSG101 blk: blocks PTAP/TSG101 interaction to inhibit HIV-1 budding. Q99816. Fluorescence polarization, FITC-PTAP peptide / Tsg101 binding. Potency, µM (series often up to 115 µM), for the others: at the top dose activity change, negative = inhibition, most hits filed as inhibitors. 340,000 tested, under 10 active; active = well fitted inhibition curve with a large enough effect in the main read-out, with a control signal flat, not every such curve was filed as active; inconclusive = small, poorly fitted or top-dose-only effect, or effect the other way, or a change in a side signal; inactive = no such curve, though single readings can be large or run the other way; also: potency is read from the fitted curve at half-maximal effect; % of control where 0% means no effect
# Target sequence (Q99816 whole entry, looked up): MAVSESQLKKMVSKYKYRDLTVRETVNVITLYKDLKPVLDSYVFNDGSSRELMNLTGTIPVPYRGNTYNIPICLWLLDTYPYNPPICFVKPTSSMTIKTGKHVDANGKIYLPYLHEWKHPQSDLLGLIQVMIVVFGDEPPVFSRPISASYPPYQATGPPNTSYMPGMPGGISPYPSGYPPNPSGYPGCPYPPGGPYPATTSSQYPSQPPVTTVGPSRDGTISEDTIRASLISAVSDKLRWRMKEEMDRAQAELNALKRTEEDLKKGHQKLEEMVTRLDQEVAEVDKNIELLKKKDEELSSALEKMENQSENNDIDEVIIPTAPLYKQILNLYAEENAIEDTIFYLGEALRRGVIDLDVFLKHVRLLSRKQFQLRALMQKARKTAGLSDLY
#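 Fluorescence anisotropy tracks displacement of a FITC-tagged PTAP peptide (50 nM) from the Tsg101 binding domain (10 uM), following a 20 min room-temperature incubation at pH 7.5.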
# Active calls of the source: *; ? = inconclusive; · = not tested or not shown; [ ] = another dose, or the depositor's remark. Unless noted, calls follow the shape of the dose curve; as a rule, active = well fitted curve in the direction sought with a large enough effect; inconclusive = small, poorly fitted or top-dose-only effect, or another doubt; inactive = no such curve, though single readings can be large; an effect the other way counts as inactive or inconclusive. An excerpt, so the mix of outcomes need not match the whole.
item	Compound	PKM2 act	Chronic BCR inh	a7 integrin act	Giardia kill	S-ASM inh	Tb PFK inh	Coupling enz	GALK inhibitor	B2AR arrestin	PTAP TSG101 blk
1	CC(C)n1c(C(O)c2ccccc2)nc2ccccc21 (stereo unspecified)	0%	-2%	-22%	-3	-1%	-2%	-1	0%	0.2%	0%
2	Cc1cc(C)cc(NC(=O)CSc2nnc(NC(=O)C3CC3)s2)c1	8%	-17%	-7%	15	-2%	-1%	4	15%	0.3%	-2%
3	Cc1cc2oc(=O)cc(CN3CCN(S(=O)(=O)c4cccs4)CC3)c2cc1C	-8%	3%	-14%	?	-2%	6%	0	-3%	-0.7%	-2%
4	COc1cc(/C=N/N=C(/N)c2nonc2N)cc(Br)c1OCc1ccccc1C	4%	?	0%	-11	-8%	2%	-2	-2%	0.0%	-6%
5	O=C(c1cnn(C(=O)c2ccc(O)cc2)c1)c1ccccc1O	9%	?	·	·	·	7%	7	-1%	0.5%	·
6	COc1ccccc1NC(=O)c1ccc(C(=O)Nc2ccccc2OC)nc1	-1%	2%	25%	5	6%	3%	-3	-7%	-0.6%	-1%
7	N=C1SCC(=O)N1c1nc(-c2ccccc2)cs1	0%	?	16%	-4	-1%	-3%	0	·	-0.1%	-7%
8	COc1ccc(C(CCNCc2ccc(OC(C)C)cc2)c2ccccc2OC)cc1 (stereo unspecified)	·	?	-74%[inhibitor]	-1	-11%	0%	-4	·	0.5%	1%
9	CCCc1cc(-c2nc(N)ncc2-c2ccc3c(c2)OCCCO3)c(O)cc1OC	3%	?	-58%[inhibitor]	-8	-10%	-9%	-11	-2%	-1.0%	-1%
10	CC(C)C(=O)Nc1ccc(C(=O)Nc2nnc(C(C)(C)C)s2)cc1	-4%	-11%	32%	10	-6%	?	1	3%	-0.1%	3%
11	CC(C)c1nnc(NC(=O)CCC(=O)NCc2cccs2)s1	1%	0%	-14%[7.66 µM]	-6	-2%	-1%	2	5%	0.1%	0%
12	CC1CCCCC1NC(=O)CCCCCn1c(=S)[nH]c2ccsc2c1=O (stereo unspecified)	·	-2%	-27%	5	4%	5%	3	0%	0.6%	1%
13	CN(C)CCNC(=O)CCCNC(=O)Cn1cnc2sc3c(c2c1=O)CCCC3	2%	-1%	2%	-5	-3%	-4%	1	0%	-0.3%	-10%
14	CSc1cc(C)n(-c2ccccc2C)c(=S)c1C(C)=O	-1%	1%	-15%	11	0%	-4%	-4	0%	-1.0%	-5%
15	C/C(CC(=O)Nc1ccc2c(c1)OCCO2)=N\NC(=O)COc1ccc(C)cc1	-4%	-1%	-1%	-5	2%	5%	-3	-2%	0.4%	-5%
16	CCC(=O)Nc1nc2ccccc2n1CCN(CC)CC	1%	4%	7%[7.66 µM]	-16	7%	-2%	3	1%	0.0%	-4%
17	CCOc1cc(/C=N/N=C(\N)c2nonc2N)cc(Br)c1OCc1cccc2ccccc12	2%	?	-10%	-17	-3%	-5%	1	-3%	0.2%	-1%
18	CCOC(=O)c1c(NC2OC(=O)c3c2ccc(OC)c3OC)sc(C(=O)OC(C)(C)C)c1C (stereo unspecified)	0%	6%	1%	-5	-5%	0%	-3	-7%	4.1%	-1%
19	CSc1cc(C)n(-c2ccc(Cl)cc2)c(=S)c1C(C)=O	3%	2%	9%	-4	-1%	1%	-3	-2%	0.1%	2%
20	COc1ccc(CC(=O)Nc2sc3c(c2C(N)=O)CCCC3)cc1OC	-1%	0%	-18%	-19	1%	6%	0	8%	0.5%	-2%
21	Cc1nn2c(-c3ccccc3)ccnc2c1-c1ccccc1	0%	?	0%	3	-11%	4%	0	-3%	0.0%	-3%
22	C=CCc1ccc(OCCCCOc2ccc(C(=O)O)cc2)c(OC)c1	1%	?	-21%	-11	0%	4%	9	-2%	0.2%	-4%
23	CC1=C(C(=O)Nc2cccnc2)C(c2ccncc2)n2nnnc2N1 (stereo unspecified)	-3%	3%	-9%	4	2%	1%	-1	0%	0.0%	-2%
24	COc1ccc(CCNc2cn[nH]c(=O)c2Cl)cc1OC	2%	-3%	8%	-13	0%	0%	-1	-1%	-0.2%	-1%
25	COc1ccc(C(=O)NCCSc2ccc(C)cc2)cc1	0%	-2%	7%	-17	-1%	-2%	-1	2%	-4.1%	-2%
26	CCOc1cc(S(=O)(=O)NCCN2CCOCC2)c(C)cc1C	-1%	?	1%	2	1%	-7%	0	-2%	-0.3%	-2%
27	O=c1c2ccccc2nc(N2CCN(c3ccccc3)CC2)n1Cc1ccccc1	0%	15%	-15%	-5	-9%	1%	0	3%	-0.1%	-4%
28	COc1ccc(Nc2ncccc2C(=O)Nc2ccccc2)cc1	1%	?	-52%[inhibitor]	-5	-21%	0%	-15	0%	0.5%	-5%
29	Cc1ccc(NC(=O)OCc2cc(-c3ccccc3)on2)cc1	-2%	-4%	?	-15	-8%	1%	1	-2%	0.2%	1%
30	COc1ccccc1C(=O)NC(=O)Nc1cccc(Cl)c1	·	-4%	13%	-11	-1%	10%	-4	·	-0.8%	-9%

# Only Giardia kill and Chronic BCR inh, for five of the compounds above:
no.	SMILES	Giardia kill	Chronic BCR inh
11	CC(C)c1nnc(NC(=O)CCC(=O)NCc2cccs2)s1	-6	0%
12	CC1CCCCC1NC(=O)CCCCCn1c(=S)[nH]c2ccsc2c1=O (stereo unspecified)	5	-2%
13	CN(C)CCNC(=O)CCCNC(=O)Cn1cnc2sc3c(c2c1=O)CCCC3	-5	-1%
14	CSc1cc(C)n(-c2ccccc2C)c(=S)c1C(C)=O	11	1%
15	C/C(CC(=O)Nc1ccc2c(c1)OCCO2)=N\NC(=O)COc1ccc(C)cc1	-5	-1%

# Ordered by value in B2AR arrestin (ascending): some entries from above.
nr | mol | B2AR arrestin
9 | CCCc1cc(-c2nc(N)ncc2-c2ccc3c(c2)OCCCO3)c(O)cc1OC | -1.0%
16 | CCC(=O)Nc1nc2ccccc2n1CCN(CC)CC | 0.0%
11 | CC(C)c1nnc(NC(=O)CCC(=O)NCc2cccs2)s1 | 0.1%

# Next section:
item	Compound	PKM2 act	Chronic BCR inh	a7 integrin act	Giardia kill	S-ASM inh	Tb PFK inh	Coupling enz	GALK inhibitor	B2AR arrestin	PTAP TSG101 blk
31	Cc1cc(C)cc(-n2nnc(C(=O)NCc3ccco3)c2N)c1	-12%	?	-2%	-1	1%	-9%	-1	-2%	0.8%	-10%
32	CC1CCCCC1NC(=O)CCCn1c(=S)[nH]c2ccccc2c1=O (stereo unspecified)	0%	0%	-15%	26	10%	3%	-2	-1%	0.7%	-1%
33	COc1ccc(-c2cc(-c3n[nH]c(=S)n3-c3cc(OC)ccc3OC)[nH]n2)cc1	0%	-18%	-6%	-8	-7%	?	-4	-1%	-1.6%	-4%
34	COc1cc(C(=O)OC2CCCCC2=O)cc(OC)c1C (stereo unspecified)	-1%	-15%	-5%	-10	-2%	-23%	2	2%	0.0%	-6%
35	CC1(C)NC(=O)N(CNc2cc(Cl)ccc2Cl)C1=O	-5%	?	15%	2	1%	-6%	7	-2%	-0.6%	-4%
36	Cc1c(OC(C)C(=O)N2C[C@H]3C[C@@H](C2)c2cccc(=O)n2C3)ccc2c3c(c(=O)oc12)CCCC3 (stereo partly specified)	0%	0%	-8%	0	10%	-1%	2	·	-0.7%	0%
37	CCOC(=O)c1ccccc1NC(=O)c1c(O)c2ccccc2n(CC)c1=O	-10%	?	27%	-8	-8%	-15%	1	-3%	0.5%	2%
38	COc1ccc(-c2cnnn2-c2ccc(NC(=O)/C=C/c3ccc(OC)c(OC)c3)cc2)cc1	-4%	-11%	18%	?	-2%	1%	1	-1%	0.4%	2%
39	OC(CN1CCC(Cc2ccccc2)CC1)c1ccccc1 (stereo unspecified)	·	2%	-8%	-1	1%	3%	4	·	0.4%	-1%
40	FC(F)(F)c1cccc(NC(=S)Nc2cccc(Cl)c2)c1	-3%	?	-20%	-4	0%	-6%	1	-5%	-0.2%	-2%
41	COC(=O)c1ccc(C2NC(=S)N(c3ccccc3)C(C)=C2C(=O)Nc2ccccc2OC)cc1 (stereo unspecified)	2%	?	8%	-2	-1%	-1%	-1	-2%	-0.1%	-2%
42	O=C(NC(=S)Nc1nc(-c2ccccc2)cs1)c1cncc(Br)c1	3%	1%	3%	2	-3%	7%	3	·	-0.3%	-3%
43	Nc1ccc(C(=O)Oc2ccc([N+](=O)[O-])cc2)cc1	40µM*	?	10%	-16	-3%	0%	0	0%	0.5%	-1%
44	O=C(Cc1cccc2ccccc12)NC(NC(=S)Nc1ccccc1Cl)C(Cl)(Cl)Cl (stereo unspecified)	-8%	-5%	-33%	4	-6%	-1%	2	·	-1.7%	1%
45	Cc1ccc(NC(=O)C2CCCO2)cc1[N+](=O)[O-] (stereo unspecified)	3%	?	-5%	-5	-2%	8%	4	0%	-0.5%	-5%

# From PubChem
